2A StopGo = lowers the luciferase signal of an FMDV 2A StopGo reporter. human cells with a luciferase reporter of 2A StopGo recoding; control for the full effect not named in the record. Potency, µM (highest dose often 57.9 µM), inactives show at the top dose signal change, negative = less light. 1.2% of 410,000 active; active = well fitted falling curve with a large enough effect; inconclusive = small, poorly fitted or top-dose-only effect; inactive = no such curve, though single readings can be large or run the other way; tested in HEK293T cells; note: % is set by controls: 0 for no effect and ±100 for the full control effect; nearly all actives have a fitted effect of over 45% in size; luciferase light after 4 h
RE007 growth inh = less growth of the S. pombe RE007 Vpr strain | 0.21% of 360,000 active | S. pombe RE007 Vpr strain, BacTiter-Glo ATP luminescence, 24 h; control for the full effect not named in the record | Potency, µM (series often up to 92.2 µM), without a hit: top-dose activity change, negative = less growth; active = well fitted falling curve with a large enough effect; inconclusive = small, poorly fitted or top-dose-only effect; inactive = no such curve, though single readings can be large or run the other way;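 note: % is set by controls: 0 for no effect and ±100 for the full control effect; nearly all actives have a fitted effect of over 50% in size; the assay follows cell death caused by Vpr and the record does not say whether a fall means rescue or toxicity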
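Fission yeast RE007 carrying one integrated HIV-1 vpr copy, seeded at OD 0.01 in PMG+AL medium with 23 nL pinned compound. Grown 24 h at 30 degrees; viability read by BacTiter-Glo luminescence after 5 min.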
NS1 function inh = inhibitors of influenza NS1 protein function; Potency, µM (top dose mostly 46.1 µM), for the others: top-dose activity, positive = more growth; S. cerevisiae slowed by influenza A NS1, growth recovery by OD600; 0.4% of 270,000 active; note: actives are rising curves; nearly all actives have a fitted effect of over 50% in size
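Compounds were scored for reversing the slow growth caused by influenza A NS1 in S. cerevisiae, measured by optical density at 600 nm. Assay medium contained 2% galactose at pH 6.0; NS1-free yeast of the same strain were the positive control.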
Lassa entry inh = blocks Lassa virus binding to or entry into cells; Lassa virus pseudotype entry inhibition, cell reporter; control for the full effect not named in the record; Potency, µM (doses to about 37.9 µM), for the others: at the highest dose activity change, negative = inhibition, hits mostly inhibitors; 1.2% of 300,000 active; AID 540256; active means well fitted inhibition curve with a large enough effect; inconclusive means small, poorly fitted or top-dose-only effect, or effect the other way; inactive means flat fitted curve, though single readings scatter; tested in HEK293 cells; note: % is set by controls: 0 for no effect and ±100 for the full control effect; nearly all actives have a fitted effect of over 50% in size; luciferase read-out
Cruzain inh noDet = blocks cruzain activity in detergent-free assay; Potency, µM, for inactives: max response, negative = inhibition, usual class: inhibitors; purified cruzain, Z-FR-AMC fluorescence, no detergent; P25779; 2.3% of 200,000 active; active = well fitted curve in the direction sought with a large enough effect; inconclusive = small, poorly fitted or top-dose-only effect, or another doubt; inactive = no such curve, though single readings can be large; an effect the other way counts as inactive or inconclusive;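 note: plate controls were enzyme without inhibitor for no effect and buffer without enzyme for full effect; nearly all actives have a fitted effect of over 40% in size; top concentration of the series not given in the record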
Target sequence (P25779 123-467 limits assumed): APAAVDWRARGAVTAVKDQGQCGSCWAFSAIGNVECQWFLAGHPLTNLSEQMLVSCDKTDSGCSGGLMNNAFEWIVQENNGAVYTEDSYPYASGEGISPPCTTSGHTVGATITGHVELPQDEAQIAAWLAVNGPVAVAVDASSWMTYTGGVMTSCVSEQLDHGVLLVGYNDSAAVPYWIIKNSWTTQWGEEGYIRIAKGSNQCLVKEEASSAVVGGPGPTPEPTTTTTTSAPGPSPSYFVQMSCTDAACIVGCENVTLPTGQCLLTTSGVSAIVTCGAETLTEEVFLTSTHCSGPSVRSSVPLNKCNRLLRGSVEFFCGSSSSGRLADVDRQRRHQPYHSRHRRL
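Detergent-free condition (0.00005% Triton X-100) in acetate buffer pH 5.5 with DTT. 1.5 nM enzyme and compound were pre-mixed 15 min, then 2 uM Z-FR-AMC substrate added; reaction progress from fluorescence change between first and third reads (60 s).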
SARS PLpro yeast = SARS-CoV PLP inhibition in yeast. S. cerevisiae expressing SARS-CoV PLpro, growth rescue; control for the full effect not named in the record. Potency, µM (series often up to 32.9 µM), without a hit: at the highest dose activity, positive = growth rescue. 0.19% of 330,000 active; note: 0% is about no effect; nearly all actives have a fitted effect of over 55% in size; growth read by luminescence after 48 h
MARV entry inh = inhibitors of Marburg virus binding or cell entry | Marburg virus pseudotyped entry inhibition, cell reporter; control for the full effect not named in the record; about a third of the inactives were read at about 46 µM | 1.8% of 300,000 active | AID 540276 | Potency, µM (titrated, usually from 37.8 µM), for inactives: top-dose activity change, negative = inhibition, usual class: inhibitors; active = well fitted inhibition curve with a large enough effect; inconclusive = small, poorly fitted or top-dose-only effect, or effect the other way; inactive = flat fitted curve, though single readings scatter; tested in HEK293 cells; about a fifth of its hits are not listed in these tables; note: % is set by controls: 0 for no effect and ±100 for the full control effect; luciferase read-out
Cruzain inh Det = inhibitors of Trypanosoma cruzi cruzain with detergent; P25779; purified cruzain, Z-FR-AMC fluorescence, 0.01% Triton; Potency, µM, for the others: max response, negative = inhibition, hits mostly inhibitors; 0.43% of 200,000 active; AID 1478; active = well fitted curve in the direction sought with a large enough effect; inconclusive = small, poorly fitted or top-dose-only effect, or another doubt; inactive = no such curve, though single readings can be large; an effect the other way counts as inactive or inconclusive;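 note: plate controls were neutral wells for no effect and buffer without enzyme for full effect; nearly all actives have a fitted effect of over 40% in size; top concentration of the series not given in the record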
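Steps: dispense cruzain (1.5 nM final) in acetate buffer pH 5.5 with DTT and 0.01% Triton X-100; pin-transfer compounds; incubate 15 min RT; add Z-FR-AMC (2 uM final); read fluorescence every 30 s, using the 60 s intensity change.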
* marks the source's active call; other numbers are inactive results; ? = inconclusive; / = no result given; & = joins results of further samples; [ ] = another dose, or the depositor's remark. Unless noted, calls come from the whole dose curve; as a rule, active means well fitted rising curve with a large enough effect; inconclusive means small, poorly fitted or top-dose-only effect; inactive means no such curve, though single readings can be large or run the other way. Potency is the fitted concentration of half-maximal effect.

Order of values – 2A StopGo, RE007 growth inh, NS1 function inh, Lassa entry inh, Cruzain inh noDet, SARS PLpro yeast, MARV entry inh, Cruzain inh Det
O=C(Nc1ccc(NC(=O)c2ccc(Cl)cc2Cl)cc1)c1cccs1
  0.2%, 11.8%, 16.7%, 13.9%[46.1 µM], /, 0.6%, ?, /
O=C(NCc1ccc2c(c1)OCO2)C1CC(c2ccc(Cl)cc2)=NO1 (stereo not given)
  -3.6%, -2.3%, -5.2%, 0.0%, -15.7%, 0.0%, -8.6%, 1.9%
COc1cc2c(cc1NC(=O)CCC(=O)O)oc1ccccc12
  20.1%, 7.8%, -7.1%, -3.4%[46.1 µM], /, 2.3%, 14.7%[46.1 µM], /
Cc1ccc(C(=O)N(CC(=O)NC2CCCCC2)c2ccccc2F)s1
  12.0%, 2.3%, 0.7%, ?, /, 0.9%, 16.8%[46.1 µM], /
Cc1ccc2[nH]c3c(c2c1)CCC3=O
  /, -16.0%, -59.1%, -13.9%, 11.6%, -12.6%, 1.0%, 15.0%
COc1ccc(OC)c(NC(=O)CSc2nc3ccccc3c(=O)n2CC2CCCO2)c1 (stereo not given)
  8.6%, -3.7%, 13.3%, -0.2%[46.1 µM], /, -8.4%, -5.7%[46.1 µM], /
COc1cc2c(cc1NC(=O)Cc1ccc(C)cc1)oc1ccccc12
  63.5%[activator], -2.1%, 11.6%, 8.9%, -0.4%, -2.3%, ?, -10.2%
CC(=O)CCn1c(=O)n(CCC(C)=O)c(=O)n(CCC(C)=O)c1=O
  -13.7%, -2.0%, 22.5%, -12.3%, 3.4%, 16.2%, -8.1%&-8.1%[46.1 µM], 0.9%
CCNC(=O)CCn1nc(-c2ccc(Cl)cc2)c2ccccc2c1=O
  -16.5%, 0.8%, 8.6%, -25.8%, 3.7%, 6.7%, -28.7%, 2.8%
C=C1C(C(=O)Nc2ccc(OCC)cc2)C1C(=O)Nc1ccc(OCC)cc1 (stereo not given)
  -12.0%, -16.1%, /, 22.9%[46.1 µM], /, 0.4%, -23.0%[46.1 µM], /
CC12COC3(C(=O)Nc4ccc([N+](=O)[O-])cc4)CC1CCC32C (stereo not given)
  -18.5%, 7.0%, 6.7%, 0.9%, 2.4%, 7.0%, -7.4%, 0.4%
COC(=O)c1c(N)n(-c2ccc(NC(C)=O)cc2)c2nc3ccccc3nc12
  -28.9%, -2.9%, -25.8%, -6.1%, 20.7%, -7.2%, -1.5%, 1.1%
O=C(O)CC1c2ccccc2CCN1S(=O)(=O)c1cccs1 (stereo not given)
  11.0%, 0.8%, /, 8.7%, /, /, -8.9%[46.1 µM], /
NC1=NC(=O)/C(=C/c2cccc(-c3ccc(S(N)(=O)=O)cc3)c2)S1
  -12.5%, -4.2%, 6.4%, /, /, -1.5%, /, /
Cc1cccc(NC(=O)NNC(=O)c2cc(-c3ccccc3Cl)nc3ccccc23)c1
  -43.7%, -10.9%, -1.7%, -16.3%, -10.7%, -24.9%, ?, 6.3%
Cc1nnc(SCCn2c(Br)nc3c2c(=O)[nH]c(=O)n3C)s1
  -4.8%, 9.7%, 4.0%, 0.0%, 0.3%, -5.6%, 6.3%, 3.8%
CC(=O)N1CCN(c2nc3ccc([N+](=O)[O-])cc3s2)CC1
  45.9%[activator], 1.6%, -2.1%, /, /, 1.3%, /, /
CCOc1ccc2nc(N=Nc3c(O)[nH]c(=O)[nH]c3=O)sc2c1
  9.3%, -2.6%, 8.2%, /, /, 2.5%, /, /
O=C(CC1C(=O)NCCN1C/C=C/c1ccccc1)NCCc1ccncc1 (stereo not given)
  8.0%, 6.9%, -1.1%, -7.1%[46.1 µM], /, 2.6%, 9.1%[46.1 µM], /
Cc1ncoc1C(=O)NC1CC(C)(C)Cc2c1cnn2-c1ccccc1 (stereo not given)
  19.2%, 7.3%, -1.2%, ?, /, 4.5%, -2.8%, /
CC(=O)Cc1nsc(NC(=O)c2ccc(-c3ccc(Cl)c(Cl)c3)o2)n1
  -9.1%, -4.1%, /, -6.2%, /, -5.0%, -4.1%[46.1 µM], /
O=C(CSc1ccc(-c2cccs2)nn1)N1CCCCC1
  44.0%[activator], -2.3%, 2.5%, 19.4%, 2.8%, 7.9%, ?, -7.3%
O=C(Nc1cc(Cl)cc(Cl)c1)c1ccc(F)c(S(=O)(=O)NC2CCCCC2)c1
  11.5%, /, /, -3.4%[46.1 µM], -1.5%, /, /, 0.2%
O=C(Nc1ccc(N2CCCCCC2)cc1)c1cccc(S(=O)(=O)N2CCOCC2)c1
  ?, -16.2%, /, ?, /, 4.8%, ?, /
COc1ccc(CNC(=O)CN2C(=O)CCn3nc(-c4cn(C)c5ccccc45)cc32)cc1
  -21.5%, /, /, -4.2%[46.1 µM], ?, /, /, -3.9%
S=C(NCc1cccs1)Nc1cccc(Cl)c1Cl
  47.4%[activator], 19.9%, 5.5%, ?, 1.0%, ?, 0.5%, -7.3%
C/C=C/c1ccc(OCCCCOc2ccc(OC)cc2)c(OC)c1
  -2.7%, 0.1%, -3.7%, 0.7%, 5.3%, 16.7%, ?, -5.1%
CCOC(=O)C1CCCN(C(=O)CCS(=O)(=O)c2cc3c(cc2Cl)NC(=O)CO3)C1 (stereo not given)
  -10.8%, /, /, 23.5%[46.1 µM], -24.4%, /, /, -6.8%
Cc1ccc(Nc2nc(N)nc(COC(=O)c3ccc(Br)o3)n2)cc1
  5.1%, 0.0%, /, -2.2%, /, -5.4%, ?, /
Cc1ccsc1C(=O)NNC(=O)COc1ccc(Br)cc1
  -11.8%, -9.3%, /, 4.7%, /, -0.3%, 1.9%, /
Cc1cccc(-c2nc(SCC(=O)Nc3ccc4c(c3)OCCO4)c(-c3ccccc3)[nH]2)c1
  -5.2%, /, /, ?, ?, /, ?, -3.8%
O=C(CSc1ncnc2c1sc1ccccc12)Nc1ccc(Br)cc1
  6.8%, 50.2%, 20.0%, 6.0%, ?, 2.3%, ?, -0.1%
CC1CCCC(C)N1S(=O)(=O)c1ccc(NC(=O)CCN2C(=O)C3CC=CCC3C2=O)cc1 (stereo not given)
  12.3%, 9.1%, /, 5.2%[46.1 µM], /, 2.3%, ?, /
O=C(c1cccs1)N1CCN(C(=O)c2cccs2)C1=S
  35.5µM*, -21.6%, /, ?, /, /, ?, /
CCOc1cc(C2Nc3ccccc3NC3=C2C(=O)CC(C)(C)C3)ccc1O (stereo not given)
  5.7%, -1.0%, -4.9%, /, /, -4.4%, /, /
CCOC(=O)C1CCCN(C(=S)Nc2cccc(Cl)c2)C1 (stereo not given)
  -6.1%, -1.2%, -4.7%, -5.6%, 1.1%, 6.1%, 14.0%, -3.3%
O=C(CCC(=O)N1CCOc2ccccc21)Nc1ccccc1Br
  -14.3%, -3.1%, -12.1%, /, /, -1.4%, /, /
CN(CC(=O)NCCc1ccc(S(N)(=O)=O)cc1)CC(=O)Nc1ccc(Cl)c(C(F)(F)F)c1
  ?, 20.3%, /, -11.8%, /, /, ?, /
CCN(c1ccccc1)S(=O)(=O)c1cc(C(=O)O)ccc1C
  10.8%, 4.4%, 16.4%, -26.8%, -5.8%, -2.7%, 8.8%, 1.8%
Cc1cc(C)c2c(c1)c(C)cc1nnc(SCC(=O)c3ccc(F)cc3)n12
  -8.3%, /, /, 1.8%[46.1 µM], 4.4%, /, -20.8%[46.1 µM], -3.8%
CCC(C)[C@H](NC(=O)NCc1ccco1)C(=O)O (stereo not given in full)
  2.8%, 11.6%, 6.5%, 10.9%, -9.8%, 5.2%, -5.5%, 2.3%
CCOc1ccccc1NC(=O)/C(C#N)=C/c1c(C)nn(-c2ccc(F)cc2)c1Cl
  -23.8%, -2.2%, 17.6%, 9.2%, -4.1%, 20.0%, -21.2%, -1.8%
O=C(COC(=O)c1cc(Br)ccc1Cl)NC1CCCC1
  3.2%, -9.0%, /, 14.0%[46.1 µM], /, -2.2%, 17.3%[46.1 µM], /
CC(C)CN(CC(C)C)C(=O)Nc1cccc([N+](=O)[O-])c1
  8.2%, -25.4%, /, 6.0%[46.1 µM], /, -0.6%, 1.3%[46.1 µM], /
Cc1ccc(C(=O)NNC(=O)C(C)Oc2ccccc2F)cc1S(=O)(=O)N1CCOCC1 (stereo not given)
  -5.0%, -18.6%, /, -19.1%, /, 0.1%, 9.8%, /
Cc1ccc(N(C(=O)CCC(=O)Nc2ccccn2)C(C(=O)NC(C)C)c2ccc(F)cc2)cc1 (stereo not given)
  -19.8%, 31.6%, -2.6%, ?, /, 1.7%, -1.1%[46.1 µM], /
Cc1ccc(S(=O)(=O)NCCNc2ccc([N+](=O)[O-])cc2C(F)(F)F)cc1
  2.6%, -10.6%, -43.4%, 1.3%, -18.9%, -39.0%, ?, -9.8%
COc1ccc(-c2nnc(SCC#N)o2)cc1
  50.5%[activator], -8.1%, -4.7%, 15.9%, 12.2%, -6.1%, 4.3%, -0.5%
Cc1cc(C(=O)Cn2nc(C(=O)O)c3ccccc3c2=O)c(C)n1-c1ccccc1
  -7.2%, 8.6%, 16.3%, ?, 25.1µM*, -27.2%, ?, -8.7%
CCN(CC)S(=O)(=O)c1nnc(NC(=O)COc2ccccc2Cl)s1
  -9.8%, /, /, 12.4%[46.1 µM], 10.9%, /, /, -2.1%
CN(C(=O)CSc1nc2ccc(NC(=O)CCc3ccccc3)cc2s1)c1ccccc1
  ?, /, /, ?, -2.8%, /, ?, -4.4%
Cc1ccc(C)c(NC(=S)NC(NC(=O)Cc2ccccc2)C(Cl)(Cl)Cl)c1 (stereo not given)
  -21.6%, 2.9%, 8.2%, ?, 25.1µM*, -2.2%, ?, 4.2%
CCc1ccc(-c2nc(NC(=S)NC(=O)c3cccs3)sc2C)cc1
  18.3%, 1.6%, -1.3%, -1.9%, 3.98µM*, -6.9%, -18.8%, 2.8%
C=CCc1cc(C=O)cc(OC)c1OCc1c(Cl)cccc1Cl
  16.3%, 2.8%, -18.6%, -2.7%, -5.9%, 4.2%, -18.2%, 0.1%
